Assay outcomes from PubChem.
Six1-Eya2 blk: inhibitors of human Six1/Eya2 interaction. Q15475+O00167. AlphaScreen GST-Six1/His-Eya2 binding, biochemical; hits give low values; control for the full effect not named in the record. activity change, % (concentration not given with the values). actives 0.56% (n = 360,000). AID 651725; in the data active = activity change below about -65%; inconclusive = about -30% to -65%; inactive = above about -30%; also: % is scaled to controls: 0 for no effect and ±100 for the full control effect
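Compounds are tested against tagged Six1 and Eya2 proteins bridged by glutathione donor and nickel acceptor beads; after a one-hour incubation at 37 °C without light, AlphaScreen emission is recorded.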
gsp ag: gsp mutant agonism; AID 624287; actives 0.13% (n = 340,000); gsp mutant cells, cAMP HTRF, 30 min; control for the full effect not named in the record; Potency, µM (top dose mostly 76.9 µM), without a hit: at the top dose activation (cAMP increase), usual class: activators; active = well fitted activation curve with a large enough effect; inconclusive = small, poorly fitted or top-dose-only effect, or another doubt; inactive = no such curve, though single readings can be large or run the other way; cell line not stated here;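 also: phosphodiesterase inhibitor Ro 20-1724 added with compounds to block cAMP breakdown; potency is read from the fitted curve at half-maximal effect; nearly all actives have a fitted effect of over 60% in size; about a fifth of the inactives were tested at one dose only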
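Cells in DMEM/10% FBS with G418 were pretreated with compounds in DMSO plus […] (300 uM stock) for 30 min at 37C. cAMP was measured by HTRF (cAMP-d2 plus anti-cAMP antibody-K) after 30 min at room temperature.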
CtBP-E1A blk: CtBP/E1A binding inhibition | AlphaScreen GST-E1A/His-CtBP binding, 1536-well; hits give low values; control for the full effect not named in the record | AID 651724 | activity change, % (test concentration not listed) | actives 0.49% (n = 340,000); in the data active means activity change below about -65%; inconclusive means about -30% to -65%; inactive means above about -30%; also: % is scaled to controls: 0 for no effect and ±100 for the full control effect; compound concentration not given in the record
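In 5 uL wells, 23 nL compound meets equimolar GST-E1A and His-CtBP (5X stock 125 nM each) for 2 h, 37 °C. Beads (5X, 50 ug/mL) then 1 h, 37 °C, dark.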
D2 potentiator: human D2 receptor positive allosteric modulation; actives 0.23% (n = 360,000); DiscoveRx D2 beta-arrestin cells, luminescence, 90 min; 100% = 57 uM dopamine signal; P14416; potentiation, % (concentration not given with the values); active = potentiation of 50% or more; inconclusive = 30% to 50%; inactive = 30% or less;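 also: compound concentration not given in the record; tested on top of an EC20 dose of dopamine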
Target sequence (P14416 whole entry, looked up): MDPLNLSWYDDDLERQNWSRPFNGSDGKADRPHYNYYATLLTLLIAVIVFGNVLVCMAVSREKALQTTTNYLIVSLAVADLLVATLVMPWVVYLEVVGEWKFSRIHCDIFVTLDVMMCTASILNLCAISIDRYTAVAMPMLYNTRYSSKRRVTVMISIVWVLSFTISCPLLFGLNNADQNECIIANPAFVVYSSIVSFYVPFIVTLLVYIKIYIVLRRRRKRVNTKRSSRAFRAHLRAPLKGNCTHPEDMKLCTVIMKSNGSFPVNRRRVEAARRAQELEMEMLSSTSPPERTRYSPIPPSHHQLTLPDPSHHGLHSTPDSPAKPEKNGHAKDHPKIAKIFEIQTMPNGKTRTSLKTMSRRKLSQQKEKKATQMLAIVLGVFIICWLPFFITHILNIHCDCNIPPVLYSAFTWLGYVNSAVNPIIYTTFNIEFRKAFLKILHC
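D2 cells co-treated with compound plus 50 nM dopamine (EC20) for 90 min at 37 deg C to detect potentiation. Beta-arrestin recruitment was read as enzyme-fragment luminescence after 1 h at ambient temperature. Full response was set by 57 uM dopamine.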
gsp antagonist: antagonists of gsp mutant (McCune-Albright syndrome); gsp-mutant cells, cAMP HTRF, 30 min; control for the full effect not named in the record; Potency, µM (doses to about 76.9 µM), without a hit: top-dose activity change, negative = inhibition, actives largely listed as inhibitors; actives 0.4% (n = 340,000); active = falling curve of any shape with a large fitted effect; inconclusive = falling curve, mostly with a smaller effect; inactive = flat or rising curve; cell line not stated here;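 also: intracellular cAMP measured with PDE inhibitor Ro 20-1724 present during compound exposure; potency is read from the fitted curve at half-maximal effect; % is scaled to controls: 0 for no effect and ±100 for the full control effect; nearly all actives have a fitted effect of over 65% in size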
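Cells, 2000/well, grown 16–24 h in DMEM 10% FBS with 0.5 mg/ml G418, then compounds plus […] (300 uM addition stock), 30 min at 37C. cAMP read by HTRF (cAMP-d2 and anti-cAMP antibody-K in lysis buffer) after 30 min RT.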
D2 ag: activates the human D2 dopamine receptor | actives 0.084% (n = 360,000) | P14416 | DiscoveRx PathHunter D2 beta-arrestin, luminescence, 90 min; 100% = 57 uM dopamine signal | activation, % (no concentration beside the values); in the data active = activation above about 40%; inconclusive = about 15% to 40%; inactive = below about 15%; also: compound concentration not given in the record; the text of the record calls up to 30% inactive
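DiscoveRx PathHunter D2 beta-arrestin cells (2,100/well) attached overnight, then compound-stimulated 90 min at 37 C in HBSS/10 mM HEPES/0.1% Tween-20 buffer; beta-galactosidase complementation read by luminescence after 1 h at ambient temperature. Dopamine 57 uM final (EC100) as control.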
Active calls of the source: *; [ ] = dose if it differs, or a comment.

How did O=c1onc(-c2ccccc2Cl)n1-c1ccccc1Cl do in these assays?
Six1-Eya2 blk: -18.3; gsp ag: 4.5%[15.4 µM]; CtBP-E1A blk: -1.5; D2 potentiator: 58.2*; gsp antagonist: -12.6%; D2 ag: 40.5*

How did CC1CCCCC1NC(=O)c1cc(Cl)nc2ccccc12 (stereo not drawn) do in these assays?
Six1-Eya2 blk: 4.2; gsp ag: -61.5%[inhibitor]; CtBP-E1A blk: 2.3; D2 potentiator: -4.9; D2 ag: -2.2

How did CC(Sc1ccc(S(=O)(=O)N2CCOCC2)cn1)c1ccccc1Cl (stereo not drawn) do in these assays?
Six1-Eya2 blk: 4.2; gsp ag: -17.6%; CtBP-E1A blk: 0.2; D2 potentiator: -7.4; gsp antagonist: 6.8%; D2 ag: -0.5

Results for Cc1ccc(NC(=O)C2CCCNC2=O)nc1 (stereo not drawn) ?
Six1-Eya2 blk: 2.8; gsp ag: -27.3%; CtBP-E1A blk: 8.4; D2 potentiator: -5.6; gsp antagonist: 8.0%; D2 ag: 3.5

Results for COc1cccc(C(=O)NOCc2ccc(C)cc2)c1OC ?
Six1-Eya2 blk: 8.5; gsp ag: -44.6%[inhibitor]; CtBP-E1A blk: -4.2; D2 potentiator: -19.6; gsp antagonist: 11.1%; D2 ag: -2.0

Results for C=CCNCCOc1c(C)cc(C)cc1Cl ?
Six1-Eya2 blk: 11.2; gsp ag: -10.3%; CtBP-E1A blk: 5.6; D2 potentiator: -28.7; gsp antagonist: 17.9%; D2 ag: -1.1

What do the screens show for `COc1ccc(OCCC(=O)Nc2ccccc2)cc1`?
Six1-Eya2 blk: -1.9; gsp ag: -7.7%; D2 potentiator: 9.9; gsp antagonist: 1.1%; D2 ag: -0.2

How did CCCS(=O)(=O)NC(=O)C1(C)CCCN(C(=O)CCc2cccs2)C1 (stereo not drawn) do in these assays?
Six1-Eya2 blk: 9.6; CtBP-E1A blk: 11.8; D2 potentiator: 5.5; D2 ag: 1.9

What do the screens show for `COc1cc(/C=N/NC(=O)c2cc(-c3ccccc3C)nc3ccccc23)cc(OC)c1O`?
Six1-Eya2 blk: -25.2; gsp ag: 22.2%; CtBP-E1A blk: -24.1; D2 potentiator: -2.0; gsp antagonist: 19.1%; D2 ag: -2.0

What do the screens show for `COC(=O)c1cn(Cc2cccc(C)c2)nn1`?
Six1-Eya2 blk: 11.3; gsp ag: inconclusive; CtBP-E1A blk: 0.0; D2 potentiator: -11.8; gsp antagonist: 3.2%; D2 ag: -1.1

What do the screens show for `CCOC(=O)c1c(C=O)c(C)n(Cc2ccc(Cl)cc2)c1C`?
Six1-Eya2 blk: -6.6; gsp ag: 4.8%; CtBP-E1A blk: -16.3; D2 potentiator: -7.4; gsp antagonist: 2.3%; D2 ag: -1.4

Results for CCC[N+]1(CC#CC(O)(c2ccccc2)C2CCCCC2)CCCCC1 (stereo not drawn) ?
Six1-Eya2 blk: 0.0; gsp ag: -12.2%[15.4 µM]; CtBP-E1A blk: 2.2; D2 potentiator: -21.7; gsp antagonist: 16.3%; D2 ag: -6.8

What do the screens show for `COCCN1C(=O)c2[nH]nc(-c3ccccc3O)c2C1c1ccc(OC)cc1` (stereo not drawn)?
Six1-Eya2 blk: -8.9; gsp ag: 10.1%[15.4 µM]; CtBP-E1A blk: 1.9; D2 potentiator: -2.1; gsp antagonist: -4.5%; D2 ag: -4.8

How did O=[N+]([O-])c1cc(/C=N\Nc2nc(-c3ccccc3)cs2)ccc1O do in these assays?
Six1-Eya2 blk: -24.5; gsp ag: -49.7%[inhibitor]; CtBP-E1A blk: -19.5; D2 potentiator: 12.9; gsp antagonist: inconclusive; D2 ag: 13.2

How did O=C1CN(Cc2nc3cc(Cl)ccc3c(=O)[nH]2)CCN1 do in these assays?
Six1-Eya2 blk: -2.4; gsp ag: 0.2%[15.4 µM]; CtBP-E1A blk: -9.2; D2 potentiator: -2.3; gsp antagonist: 7.5%; D2 ag: 1.0

How did C=CCc1ccc(OCCCCN2CC(C)OC(C)C2)c(OC)c1 (stereo not drawn) do in these assays?
Six1-Eya2 blk: -0.7; gsp ag: -2.1%; CtBP-E1A blk: 7.7; D2 potentiator: -33.3; gsp antagonist: 20.2%; D2 ag: -1.9

What do the screens show for `CSc1nc2ccc3nc(NC(=O)C4COc5ccccc5O4)sc3c2s1` (stereo not drawn)?
Six1-Eya2 blk: -7.4; gsp ag: inconclusive; CtBP-E1A blk: -2.7; D2 potentiator: 8.7; gsp antagonist: -28.2%; D2 ag: -0.6

Results for CCC1CN(C(=O)NCc2ccc(C)cc2)c2cc(C)ccc2O1 (stereo not drawn) ?
Six1-Eya2 blk: -1.9; gsp ag: -16.6%; CtBP-E1A blk: -1.6; D2 potentiator: -8.9; gsp antagonist: -16.4%; D2 ag: -2.2

Results for CCOC(=O)Nc1cccc(C(=O)O)c1 ?
Six1-Eya2 blk: 5.8; gsp ag: 9.7%; CtBP-E1A blk: 6.3; D2 potentiator: -20.0; gsp antagonist: 13.5%; D2 ag: 2.1

Results for O=C(Nc1ccccc1N1CCOCC1)c1cccnc1Cl ?
Six1-Eya2 blk: -9.2; gsp ag: 0.3%[15.4 µM]; CtBP-E1A blk: 14.1; D2 potentiator: -4.2; gsp antagonist: 13.0%; D2 ag: -1.2

How did CN(C(=O)CSc1ncccc1C(=O)O)c1ccccc1 do in these assays?
Six1-Eya2 blk: 6.7; gsp ag: -4.4%; CtBP-E1A blk: 8.3; D2 potentiator: -7.2; gsp antagonist: 7.0%; D2 ag: -0.3

Results for CCNC(=O)CSc1nc2ccccc2c(=O)n1CCCOC(C)C ?
Six1-Eya2 blk: 10.4; gsp ag: inconclusive; CtBP-E1A blk: 2.5; D2 potentiator: -5.3; gsp antagonist: 3.1%; D2 ag: -2.2

How did Cc1ccc(NS(=O)(=O)c2ccc(C(C)C)cc2)cc1S(=O)(=O)N1CCOCC1 do in these assays?
Six1-Eya2 blk: -5.0; gsp ag: 5.7%; D2 potentiator: 5.5; gsp antagonist: 0.6%; D2 ag: 4.0

What do the screens show for `CN1CCSc2ccc(C(=O)Nc3cc(F)ccc3F)cc21`?
Six1-Eya2 blk: 8.3; gsp ag: 17.3%; CtBP-E1A blk: 18.2; D2 potentiator: -11.0; gsp antagonist: -1.4%; D2 ag: 0.0

How did COCCCNc1ccn2nc(-c3ccc(OCc4ccccc4)cc3)cc2n1 do in these assays?
Six1-Eya2 blk: -6.9; CtBP-E1A blk: -7.7; D2 potentiator: 0.6; D2 ag: 10.6

What do the screens show for `CCOc1ccccc1CNCCO`?
Six1-Eya2 blk: 3.0; gsp ag: 8.1%; CtBP-E1A blk: 3.6; D2 potentiator: -9.3; gsp antagonist: 7.9%; D2 ag: -2.1

How did CSc1sc(C#N)c2c1/C(=N\O)CCC2 do in these assays?
Six1-Eya2 blk: -6.0; gsp ag: 10.7%; CtBP-E1A blk: 14.7; D2 potentiator: 3.0; gsp antagonist: 3.6%; D2 ag: -3.3

How did NCCCC[C@@H](C(=O)N1CCNCC1)n1cc([C@@H](N)CC(N)=O)nn1 do in these assays?
Six1-Eya2 blk: 1.7; CtBP-E1A blk: -0.7; D2 potentiator: -12.4; gsp antagonist: 5.3%; D2 ag: -4.2

What do the screens show for `Cc1c(=O)n(OCc2ccccc2F)c2ccccc2[n+]1[O-]`?
Six1-Eya2 blk: -2.5; gsp ag: -32.0%[inhibitor]; CtBP-E1A blk: -0.2; D2 potentiator: 24.0; gsp antagonist: 17.0%; D2 ag: 3.1

Results for Cc1cc(C)n(S(=O)(=O)c2cc(C)c(C)cc2C)n1 ?
Six1-Eya2 blk: -8.3; gsp ag: 18.1%; CtBP-E1A blk: -2.9; D2 potentiator: 7.7; gsp antagonist: -27.5%; D2 ag: -3.6

How did CCCCSc1nnc(-c2ccccc2)c2ccccc12 do in these assays?
Six1-Eya2 blk: 22.5; gsp ag: 25.6%; CtBP-E1A blk: 7.7; D2 potentiator: -8.0; gsp antagonist: inconclusive; D2 ag: -0.8

How did Cc1cc(Cl)ccc1NC(=O)CN1C(=O)NC2(CCCc3ccccc32)C1=O (stereo not drawn) do in these assays?
Six1-Eya2 blk: -1.7; gsp ag: 23.1%; CtBP-E1A blk: 6.8; D2 potentiator: 2.8; gsp antagonist: 5.0%; D2 ag: -5.7

How did COc1ccc(C(=O)N2CCCC(Nc3ccc(C(C)C)cc3)C2)c(OC)n1 (stereo not drawn) do in these assays?
Six1-Eya2 blk: -17.9; gsp ag: -55.1%[inhibitor]; CtBP-E1A blk: -0.5; D2 potentiator: -26.6; gsp antagonist: -11.1%; D2 ag: -2.3

What do the screens show for `N[C@@H](Cc1ccccc1)c1nnc2sc(SCc3ccccc3)nn12`?
Six1-Eya2 blk: -1.3; gsp ag: 2.8%; CtBP-E1A blk: -3.8; D2 potentiator: -0.5; gsp antagonist: -3.1%; D2 ag: -0.6

Results for CCOCCCNC(C(=O)Nc1ccc(OC)c(Cl)c1)c1ccccc1 (stereo not drawn) ?
Six1-Eya2 blk: -0.1; gsp ag: -6.1%; D2 potentiator: -4.3; gsp antagonist: 0.3%; D2 ag: -2.1

How did Cc1ccc(-c2csc3ncnc(Oc4ccc5c(C)cc(=O)oc5c4)c23)cc1 do in these assays?
Six1-Eya2 blk: 1.6; gsp ag: -0.9%; CtBP-E1A blk: 7.0; D2 potentiator: -3.8; gsp antagonist: inconclusive; D2 ag: -2.5

How did O=C(O)C1CC(=O)N(CCc2c[nH]c3ccccc23)C1 (stereo not drawn) do in these assays?
Six1-Eya2 blk: -1.5; gsp ag: 0.0%; CtBP-E1A blk: -4.0; D2 potentiator: -5.5; gsp antagonist: -3.5%; D2 ag: -0.6

How did COc1ccc(CCNC(=O)CCc2ccc(S(=O)(=O)NC(C)C)cc2)cc1 do in these assays?
Six1-Eya2 blk: 0.3; gsp ag: 26.9%; CtBP-E1A blk: 1.3; D2 potentiator: -3.4; gsp antagonist: -1.8%; D2 ag: 3.3

What do the screens show for `O=C1OC(NC(=O)c2ccccc2)C(N2CCOCC2)=C1Cl` (stereo not drawn)?
Six1-Eya2 blk: 8.6; gsp ag: 0.8%; CtBP-E1A blk: 4.4; D2 potentiator: 2.9; gsp antagonist: 5.3%; D2 ag: 0.4

Arranged by number of heavy atoms (largest number first): 3 of the compounds above.
How did Cc1ccc(-c2csc3ncnc(Oc4ccc5c(C)cc(=O)oc5c4)c23)cc1 do in these assays?
Six1-Eya2 blk: 1.6; gsp ag: -0.9%; CtBP-E1A blk: 7.0; D2 potentiator: -3.8; gsp antagonist: inconclusive; D2 ag: -2.5

Results for CCOCCCNC(C(=O)Nc1ccc(OC)c(Cl)c1)c1ccccc1 (stereo not drawn) ?
Six1-Eya2 blk: -0.1; gsp ag: -6.1%; D2 potentiator: -4.3; gsp antagonist: 0.3%; D2 ag: -2.1

What do the screens show for `O=C1OC(NC(=O)c2ccccc2)C(N2CCOCC2)=C1Cl` (stereo not drawn)?
Six1-Eya2 blk: 8.6; gsp ag: 0.8%; CtBP-E1A blk: 4.4; D2 potentiator: 2.9; gsp antagonist: 5.3%; D2 ag: 0.4
